Bioassay records: PubChem BioAssay, several laboratories
MT1-MMP act inh: inhibitors of human MT1-MMP activation | P50281 | HT1080 RFP-PRO-GFP cells, GFP/RFP ratio fluorescence, overnight; percent of plate control window, DMSO zero | GFP/RFP ratio change, % at 20 µM | 360,000 compounds, 0.061% hits | AID 651647;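 active = GFP/RFP ratio change of at least 30% with cell ATP level not reduced by more than half and red fluorescence within 50% of control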; note: strong numbers were not always called active
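Assay system – RFP-PRO-GFP reporter HT1080 cells · Compound dosing – single dose of 20 µM compound, 1% DMSO final · Incubation – overnight compound exposure at 37 °C · Measure – GFP/RFP fluorescence ratio · Benchmarks – DMSO wells and RFP-L50D-GFP cells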
UUG fidelity: alters start codon recognition fidelity in yeast; S. cerevisiae UUG-firefly luciferase reporter, luminescence/redox ratio; activity score, % at 18.7 µM; 350,000 compounds, 0.13% hits;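 active = replicate mean at a twofold rise or more, about +100% in these data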;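 note: firefly luciferase made from a UUG start codon reports start codon fidelity; reporter light over untreated wells divided by growth signal over untreated wells; some hits fall short of that in this replicate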
Rce1 inh: blocks yeast Ras-converting enzyme; Q03530; yeast membranes, quenched prenylated peptide cleavage fluorescence; calls only; 290,000 compounds, 0.27% hits;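 active = fall in fluorescence gain of 50% or more versus controls, with final raw signal at or below 3038400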;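 note: plate controls were neutral control wells for no effect and wells lacking membranes for full effect; tested at 10 µM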
eIF4H inh: inhibitors of RNA binding by human eIF4H; Q15056; eIF4H fluorescence polarization binding assay; inhibition, % at 35 µM; 290,000 compounds, 0.94% hits;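 active = 50% or more with normal probe brightness, or confirmed in later tests; about a fifth of its hits are not listed in these tables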;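 note: calls also rest on retests at 20 µM and on dose response follow-up; 0% = protein and probe with vehicle and 100% = probe without protein; strong numbers were not always called active; many hits fall short of the cut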
Env fusion inh: HIV envelope-mediated fusion inhibition | HeLa-JRFL Env/CEM21 cell fusion, luciferase | inhibition, % at 12.3 µM | 360,000 compounds, 1.1% hits | AID 651610;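 active = mean replicate inhibition score of at least 50 and every replicate individually at or above 50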;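 note: 0% = plate neutral controls and 100% = maraviroc near 300 nM; one replicate is shown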
CSC inhib: cancer stem cell inhibition; inhibition, % at 7.5 µM; cancer stem cell-like cells viability, luminescence; 300,000 compounds, 1.1% hits;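 active = mean at 75% or more and at least half the replicates too; tested in HMLE shEcad cells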;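 note: 0% = median of negative and 100% = median of positive control wells; the first replicate is given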
PABP polyA inh: blocks human PABP binding to poly(A) RNA | 290,000 compounds, 1% hits | fluorescence polarization | inhibition, % at 35 µM | P11940;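 active = 50% or more with normal probe brightness, or confirmed in later tests; about a fifth of its hits are not listed in these tables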;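 note: calls also rest on retests at 20 µM and on dose response follow-up; controls were probe without protein and protein plus probe with vehicle; some compounds called inactive have numbers as strong as hits; many hits fall short of the cut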
Target sequence (P11940 whole entry, looked up): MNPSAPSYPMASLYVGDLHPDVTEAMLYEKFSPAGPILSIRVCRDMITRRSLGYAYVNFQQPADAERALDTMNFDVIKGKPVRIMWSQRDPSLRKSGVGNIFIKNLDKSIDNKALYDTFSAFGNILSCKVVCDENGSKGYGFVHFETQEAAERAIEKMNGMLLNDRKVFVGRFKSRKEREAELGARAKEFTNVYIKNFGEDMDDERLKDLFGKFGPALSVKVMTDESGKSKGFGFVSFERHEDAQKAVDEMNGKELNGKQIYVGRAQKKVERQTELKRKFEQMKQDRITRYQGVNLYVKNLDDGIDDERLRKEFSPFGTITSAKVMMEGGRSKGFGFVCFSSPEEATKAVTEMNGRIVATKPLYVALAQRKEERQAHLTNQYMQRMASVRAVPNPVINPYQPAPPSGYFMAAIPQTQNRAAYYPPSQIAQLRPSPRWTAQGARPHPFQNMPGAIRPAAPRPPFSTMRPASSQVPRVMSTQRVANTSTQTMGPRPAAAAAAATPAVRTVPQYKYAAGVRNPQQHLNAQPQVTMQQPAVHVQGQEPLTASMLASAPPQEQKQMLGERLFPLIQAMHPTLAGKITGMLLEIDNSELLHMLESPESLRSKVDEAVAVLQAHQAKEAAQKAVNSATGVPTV
MT1-MMP act inh RFP: further read-out of MT1-MMP act inh, marked with its call; RFP signal change, %; measured here: RFP expression control read;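 0 = vehicle wells; hits needed this value within 50% of zero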
* = called active by the depositor.

Cc1cc(NC(=O)CSc2nnc(-c3ccc(Br)o3)n2Cc2ccccc2)no1 was read as MT1-MMP act inh 3, Rce1 inh inactive, eIF4H inh -5, CSC inhib -6, PABP polyA inh 11 and MT1-MMP act inh RFP -1.
Cc1[nH]n(-c2ccccc2)c(=O)c1C(=O)c1ccc(Cl)cc1 was read as MT1-MMP act inh 2, UUG fidelity -15, Rce1 inh inactive, eIF4H inh 2, Env fusion inh 4, CSC inhib 25, PABP polyA inh 2 and MT1-MMP act inh RFP 0.
COc1cc(NC(=O)COC(=O)c2ccccc2SCC(=O)N2CCCC2)cc(OC)c1 was read as MT1-MMP act inh 6, UUG fidelity -8, Rce1 inh inactive, Env fusion inh 1, CSC inhib -7 and MT1-MMP act inh RFP -2.
Screening Cc1ccc2c(c1)C(O)(C1COC(C)(C)CC1=O)C(=O)N2C (stereo not given) returned MT1-MMP act inh 2, UUG fidelity -9, Rce1 inh inactive, eIF4H inh -2, Env fusion inh -21, CSC inhib -2, PABP polyA inh -10 and MT1-MMP act inh RFP 6.
Screening O=C(c1sc2cc(Cl)ccc2c1Cl)N1CCN(CCc2ccccn2)CC1 returned MT1-MMP act inh 2, UUG fidelity -4, Rce1 inh inactive, eIF4H inh 9, Env fusion inh 7, CSC inhib 16, PABP polyA inh 5 and MT1-MMP act inh RFP -5.
For COc1ccc(CNC(=O)c2ccc(=O)oc2)cc1OC the results were MT1-MMP act inh 4, UUG fidelity -14, Rce1 inh inactive, eIF4H inh -1, CSC inhib -6, PABP polyA inh -4 and MT1-MMP act inh RFP 1.
`O=C1CC(c2ccc(F)c(Br)c2)C2=C(CCCC2=O)N1` (stereo not given) gave MT1-MMP act inh 3, UUG fidelity -4, Rce1 inh inactive, eIF4H inh 2, CSC inhib -6, PABP polyA inh -11 and MT1-MMP act inh RFP 1.
`NNC(=O)c1sccc1OCc1ccc(F)cc1` gave MT1-MMP act inh -1, Rce1 inh inactive, eIF4H inh -3, Env fusion inh 4, CSC inhib 1, PABP polyA inh -8 and MT1-MMP act inh RFP -3.
`COc1cc2ncnc(NCc3ccccc3C)c2cc1OC` gave MT1-MMP act inh 1, UUG fidelity -9, Rce1 inh inactive, eIF4H inh -6, CSC inhib 52, PABP polyA inh 4 and MT1-MMP act inh RFP -3.
CCC(=O)c1ccc(OC(=O)N2CCOCC2)cc1 was read as MT1-MMP act inh -3, UUG fidelity -3, Rce1 inh inactive, eIF4H inh 4, Env fusion inh -35, CSC inhib -6, PABP polyA inh 6 and MT1-MMP act inh RFP 0.
`Cc1cccc(C)c1OCC(=O)N(Cc1ccco1)C1CCS(=O)(=O)C1` (stereo not given) gave MT1-MMP act inh -3, UUG fidelity -1, Rce1 inh inactive, eIF4H inh -9, CSC inhib -10, PABP polyA inh -8 and MT1-MMP act inh RFP 4.
For Nc1nc(Sc2ncccc2[N+](=O)[O-])n[nH]1 the results were MT1-MMP act inh 3, UUG fidelity -11, Rce1 inh inactive, eIF4H inh -1, Env fusion inh 11, CSC inhib -18, PABP polyA inh -1 and MT1-MMP act inh RFP 2.
Screening Cc1ccc(NC(=O)[C@@H]2O[C@H](CO)[C@@H](O)[C@H]2O)cc1C(F)(F)F returned MT1-MMP act inh -1, UUG fidelity -13, Env fusion inh 0 and MT1-MMP act inh RFP 6.
`CCN(CC)CCN(Cc1cc2cc3c(cc2[nH]c1=O)OCO3)C(=S)NCC1CCCO1` (stereo not given) gave MT1-MMP act inh 0, Rce1 inh inactive, eIF4H inh -3, Env fusion inh 1, PABP polyA inh 0 and MT1-MMP act inh RFP 2.
`Cc1c(Cl)cccc1NC(=O)N1CCCC1` gave MT1-MMP act inh 1, Rce1 inh inactive, eIF4H inh 3, Env fusion inh -11, CSC inhib -15, PABP polyA inh 5 and MT1-MMP act inh RFP 5.
Screening CCC1CCC(C(=O)NC(CCSC)C(=O)NCCN(CC(C)C)CC(C)C)CC1 (stereo not given) returned MT1-MMP act inh -3, Rce1 inh inactive, eIF4H inh -1, Env fusion inh -47, CSC inhib -9, PABP polyA inh -2 and MT1-MMP act inh RFP -3.
Screening COc1ccc(CCNC(=O)COC(=O)c2ccccc2NCCO)cc1OC returned MT1-MMP act inh -6, UUG fidelity -37, Rce1 inh inactive, CSC inhib -5 and MT1-MMP act inh RFP 0.
`Cc1ccc(C(=O)N2c3ccccc3N(Cc3ccccc3)C(=O)C2(C)C)cc1` gave MT1-MMP act inh -2, Rce1 inh inactive, eIF4H inh 1, CSC inhib 33, PABP polyA inh -4 and MT1-MMP act inh RFP -25.
For CCOC(=O)c1sc(Nc2nc3c(OC)cccc3s2)nc1C the results were MT1-MMP act inh 2, UUG fidelity -6, Rce1 inh inactive, eIF4H inh 5, Env fusion inh -148, CSC inhib 32, PABP polyA inh 1 and MT1-MMP act inh RFP -10.
Screening Cc1ccccc1S(=O)(=O)N1CC(C(=O)O)=CC[C@H]1c1ccc(Cl)cc1 returned MT1-MMP act inh 1, UUG fidelity -20, Env fusion inh -3, CSC inhib 2 and MT1-MMP act inh RFP 0.
`CCN1CCN(S(=O)(=O)c2ccc(Cl)c(C(=O)Nc3cc(Cl)ccc3N3CCOCC3)c2)CC1` gave MT1-MMP act inh 1, UUG fidelity -11, Rce1 inh inactive, eIF4H inh 0, Env fusion inh -5, CSC inhib 37, PABP polyA inh 38 and MT1-MMP act inh RFP 4.
`COC(=O)/C=C/c1sc2nc(C)cc(C)c2c1N=CN(C)C` gave MT1-MMP act inh 0, eIF4H inh 0, Env fusion inh 4, PABP polyA inh -4 and MT1-MMP act inh RFP 0.
For O=C(N[C@@H](Cc1ccccc1)C(=O)NC1CCCCC1)c1ccco1 the results were MT1-MMP act inh 9, UUG fidelity -20, Rce1 inh inactive, eIF4H inh 0, Env fusion inh -98, CSC inhib 0, PABP polyA inh 1 and MT1-MMP act inh RFP 4.
CCOc1ccc(S(=O)(=O)Nc2cccc(C(=O)NCC(c3ccco3)N3CCCC3)c2)cc1 (stereo not given) was read as MT1-MMP act inh -6, UUG fidelity -9, Env fusion inh -2, CSC inhib 3 and MT1-MMP act inh RFP -3.
Cc1ccc(S(=O)(=O)NCCCCCC(=O)NC(C)(C)CO)cc1 was read as MT1-MMP act inh 3, Rce1 inh inactive, eIF4H inh 10, CSC inhib -8, PABP polyA inh 10 and MT1-MMP act inh RFP 4.
`CC(C)(C)NS(=O)(=O)c1ccc(CCC(=O)N2CCCC2)cc1` gave MT1-MMP act inh -4, Rce1 inh inactive, eIF4H inh -5, Env fusion inh 5, CSC inhib -10, PABP polyA inh 1 and MT1-MMP act inh RFP -2.
For Cc1ccc(C(=O)O)cc1Nc1ncnc2sc3c(c12)CCC3 the results were MT1-MMP act inh -1, UUG fidelity -27, Rce1 inh inactive, eIF4H inh -4, Env fusion inh -1, CSC inhib -13, PABP polyA inh -1 and MT1-MMP act inh RFP 4.
For COc1ccccc1-c1cnc(C(O)c2ccccc2)[nH]1 (stereo not given) the results were MT1-MMP act inh 1, UUG fidelity -17, Env fusion inh 12 and MT1-MMP act inh RFP 2.
For COC(=O)/C=C1\S/C(=N/N=C/c2ccc(Cl)cc2)NC1=O the results were MT1-MMP act inh 3, UUG fidelity -14, Rce1 inh inactive, eIF4H inh -5, Env fusion inh -5, CSC inhib 40, PABP polyA inh -6 and MT1-MMP act inh RFP 1.
Cc1ccc(S(=O)(=O)Nn2c(C)nnc2-n2nc(C)cc2C)cc1 was read as MT1-MMP act inh 2, UUG fidelity -12, Rce1 inh inactive, eIF4H inh 9, CSC inhib 3, PABP polyA inh 0 and MT1-MMP act inh RFP 6.
Fc1ccc(Cn2nnnc2CN2CCN(C3CCCC3)CC2)cc1 was read as MT1-MMP act inh 5, UUG fidelity -2, Rce1 inh inactive, eIF4H inh -10, CSC inhib 23, PABP polyA inh 0 and MT1-MMP act inh RFP 0.
Screening CCCc1cc(C(=O)Nc2sc(C)c(CC)c2C#N)no1 returned MT1-MMP act inh 9, UUG fidelity -11, Rce1 inh inactive, eIF4H inh 0, Env fusion inh -9, CSC inhib 7, PABP polyA inh 2 and MT1-MMP act inh RFP -2.
For CCOC(=O)C(NC(=O)c1ccccc1)=C1CCCCC1 the results were MT1-MMP act inh 2, UUG fidelity -9, Rce1 inh inactive, eIF4H inh -12, CSC inhib -10, PABP polyA inh -1 and MT1-MMP act inh RFP 2.
Screening COC(=O)Cc1ccc(OC(=O)c2cccc(S(=O)(=O)N3CCN(C)CC3)c2)cc1 returned MT1-MMP act inh 1, Rce1 inh inactive, Env fusion inh 2, CSC inhib -10 and MT1-MMP act inh RFP 2.
Cc1cc(C)nc(NC(=O)/C=C/c2ccccc2Cl)c1 was read as MT1-MMP act inh -36, Rce1 inh inactive, eIF4H inh 2, Env fusion inh -299, CSC inhib 38, PABP polyA inh 7 and MT1-MMP act inh RFP -33.
Screening Cc1ccc2[nH]c(=O)c(CN(C(=O)c3cccc([N+](=O)[O-])c3)C(C)C)cc2c1 returned MT1-MMP act inh -4, Rce1 inh inactive, eIF4H inh 2, Env fusion inh -5, CSC inhib -14, PABP polyA inh -6 and MT1-MMP act inh RFP -4.
CNC(=O)c1c(NC(=O)CS(=O)(=O)c2ccccc2)sc(C)c1C was read as MT1-MMP act inh 0, Rce1 inh inactive, Env fusion inh -18, CSC inhib -1 and MT1-MMP act inh RFP -4.
`CCNCc1cc2cc(C)ccc2[nH]c1=O` gave MT1-MMP act inh -33, UUG fidelity -2, Rce1 inh inactive, eIF4H inh 24, CSC inhib -3, PABP polyA inh 0 and MT1-MMP act inh RFP 2.
`Cc1ccc(S(=O)(=O)N2CCC(C(=O)OCC(=O)N(C)c3ccccc3)CC2)cc1C` gave MT1-MMP act inh -1, UUG fidelity 19, Rce1 inh inactive, Env fusion inh 3, CSC inhib 5 and MT1-MMP act inh RFP 2.
`Cc1ccc(S(=O)(=O)NCCCN2CCCC2)cc1` gave MT1-MMP act inh -1, UUG fidelity 1, Rce1 inh inactive, eIF4H inh 3, Env fusion inh 7, CSC inhib -2, PABP polyA inh 10 and MT1-MMP act inh RFP 0.
CC(/C=N/NC(=O)Cn1nnc(N)n1)=C\c1ccc(C(C)C)cc1 was read as MT1-MMP act inh 3, UUG fidelity 8, Rce1 inh inactive, eIF4H inh -4, Env fusion inh -11, CSC inhib 7, PABP polyA inh -9 and MT1-MMP act inh RFP 3.
For CS(=O)(=O)N1CCN(c2ccc(NC(=O)CSc3nnc(-c4ccco4)o3)cc2)CC1 the results were MT1-MMP act inh -4, Rce1 inh inactive, eIF4H inh 4, Env fusion inh -4, CSC inhib 7, PABP polyA inh -5 and MT1-MMP act inh RFP -6.
Screening COc1ccc(N2CCN(S(=O)(=O)c3cccs3)CC2)cc1 returned MT1-MMP act inh 1, UUG fidelity -3, Rce1 inh inactive, eIF4H inh -13, Env fusion inh -48, CSC inhib -7, PABP polyA inh 0 and MT1-MMP act inh RFP -1.
`COc1ccc(CC(=O)NNC(=S)Nc2ccccc2)cc1Cl` gave MT1-MMP act inh 0, Rce1 inh inactive, eIF4H inh 6, Env fusion inh 1, CSC inhib -16, PABP polyA inh -11 and MT1-MMP act inh RFP -2.
`Cc1ccc(NC(=O)c2c(O)c3ccccc3n(C)c2=O)nc1` gave MT1-MMP act inh -4, UUG fidelity -14, Rce1 inh inactive, eIF4H inh 0, Env fusion inh -170, CSC inhib -14, PABP polyA inh -11 and MT1-MMP act inh RFP -2.

Copied from the entries so far, three compounds:
`Cc1ccc(S(=O)(=O)NCCCN2CCCC2)cc1` gave MT1-MMP act inh -1, UUG fidelity 1, Rce1 inh inactive, eIF4H inh 3, Env fusion inh 7, CSC inhib -2, PABP polyA inh 10 and MT1-MMP act inh RFP 0.
CC(/C=N/NC(=O)Cn1nnc(N)n1)=C\c1ccc(C(C)C)cc1 was read as MT1-MMP act inh 3, UUG fidelity 8, Rce1 inh inactive, eIF4H inh -4, Env fusion inh -11, CSC inhib 7, PABP polyA inh -9 and MT1-MMP act inh RFP 3.
For CS(=O)(=O)N1CCN(c2ccc(NC(=O)CSc3nnc(-c4ccco4)o3)cc2)CC1 the results were MT1-MMP act inh -4, Rce1 inh inactive, eIF4H inh 4, Env fusion inh -4, CSC inhib 7, PABP polyA inh -5 and MT1-MMP act inh RFP -6.
